Compound activity from PubChem BioAssay.
VDR inhibitor: blocks the human vitamin D receptor; 400,000 compounds, 0.93% hits; Potency, µM, without a hit: max response, negative = inhibition, most hits filed as inhibitors; VDR-SRC2-3 peptide fluorescence polarization, 2 h; active = well fitted inhibition curve with a large enough effect; also: series mostly up to about 120 µM
Target sequence (P11473 whole entry, looked up): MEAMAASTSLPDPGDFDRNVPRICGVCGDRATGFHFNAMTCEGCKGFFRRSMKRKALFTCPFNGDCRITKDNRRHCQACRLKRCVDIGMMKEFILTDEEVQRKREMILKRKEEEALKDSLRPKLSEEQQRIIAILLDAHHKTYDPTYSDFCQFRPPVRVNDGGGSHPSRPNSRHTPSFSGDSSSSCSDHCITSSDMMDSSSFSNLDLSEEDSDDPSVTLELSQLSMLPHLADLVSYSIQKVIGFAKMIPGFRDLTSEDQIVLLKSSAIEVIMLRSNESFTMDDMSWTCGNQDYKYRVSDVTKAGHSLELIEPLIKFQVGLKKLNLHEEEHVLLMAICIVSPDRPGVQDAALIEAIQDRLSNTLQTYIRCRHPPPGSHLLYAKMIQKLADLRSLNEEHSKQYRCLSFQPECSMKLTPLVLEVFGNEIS
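Two reagent solutions held at 4 deg C in the dark were dispensed, compounds pinned at 23 nl, and the mixture incubated 2 h at room temperature. Read-out: fluorescence polarization of VDR–SRC2-3 peptide binding.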
Numbers without * were called inactive; & = joins results of further samples; [ ] = remark or other dose. % is scaled to controls: 0 for no effect and ±100 for the full control effect; potency is read from the fitted curve at half-maximal effect. These rows are one share of the data. The share of hits here may be higher or lower than overall.

C=C1SC(=Nc2c(C)cc(C)cc2C)N(C(=O)c2sc3ccccc3c2Cl)C12CCCCC2 was read as VDR inhibitor -26.6%.
`COc1cccc(-c2nc(SCC(=O)N3CCc4ccccc43)c3c(=O)n(C)c(=O)n(C)c3n2)c1` gave VDR inhibitor 12.1%.
Screening COc1ccc(CNC(=O)C23CC4CC(CC(Br)(C4)C2)C3)cc1 returned VDR inhibitor 4.0%.
For COc1ccccc1NC(=O)Cc1c(C(=O)O)[nH]c2ccc(Cl)cc12 the results were VDR inhibitor 2.7%.
Cc1cc(NS(=O)(=O)c2ccc(NC(=O)CCSc3ccc(F)cc3)cc2)nc(C)n1 was read as VDR inhibitor -6.6%.
`Cc1cccc(CNc2ccc(C(CC(N)=O)NC(=O)c3ccccc3)cc2[N+](=O)[O-])c1` (centres undefined) gave VDR inhibitor 1.5%.
COc1ccccc1N(C)S(=O)(=O)c1ccc(C(=O)OCC(=O)NCc2cccs2)cc1 was read as VDR inhibitor 22.9%.
Screening CC1(C)Cc2cccc(OCC(O)CN3CCN(c4ccccn4)CC3)c2O1 (centres undefined) returned VDR inhibitor 5.3%.
For COc1ccc(Oc2cccc(Cl)c2CNC(=O)CCCC(=O)O)cc1 the results were VDR inhibitor -7.9%.
`C/C(=N/NS(=O)(=O)c1ccc(Br)cc1)c1c[nH]c2ccccc12` gave VDR inhibitor -21.6%.
`O=C(CCN1CCOCC1)NNC(=O)c1ccc([N+](=O)[O-])cc1[N+](=O)[O-]` gave VDR inhibitor -14.1%.
Screening O=C(CSc1nnc(Cn2cnc3ccccc32)o1)Nc1cccc2ccccc12 returned VDR inhibitor 21.8%.
For COC(=O)c1ccccc1NC(=O)c1ccc(=O)n(Cc2cccc(C)c2)c1 the results were VDR inhibitor 8.0%.
`CC(C)(C)OC(=O)N[C@H](Cc1ccccc1)C(=O)N1CCC(C(=O)O)CC1` gave VDR inhibitor -3.6%.
Screening CCN(C(=O)CSc1ccc2c(c1)OCCO2)C1CCS(=O)(=O)C1 (centres undefined) returned VDR inhibitor 4.0%.
Screening Cc1ccc(OCCOc2ccc(Br)cc2/C=N\NC(N)=O)cc1 returned VDR inhibitor -18.9%.
`CCCn1cc(SCC(=O)NCc2ccco2)c2ccccc21` gave VDR inhibitor 5.0%.
`COc1ccccc1C=NNC(=O)C(=O)NN=Cc1ccccc1OC` gave VDR inhibitor 1.9%.
`COC(=O)c1cc2oc(C)cc2n1CC(=O)Nc1ccc(C)cc1C` gave VDR inhibitor 9.5%.
Screening Cc1ccc(SCC(=O)OCC(=O)N(C)CC(=O)Nc2ccc(F)cc2)cc1 returned VDR inhibitor 8.5%.
CCCn1c(N)c(C(=O)CSc2nnc(C3CC3)n2C2CC2)c(=O)[nH]c1=O was read as VDR inhibitor -19.1%.
Screening CN(C)/C=C1/C(=O)Nc2ccccc21 returned VDR inhibitor -8.5%.
Screening COc1cccc(NC(=O)CSc2ncc(S(=O)(=O)c3ccccc3)c(=O)[nH]2)c1 returned VDR inhibitor -29.1%.
Screening CCOc1cc(/C=C2\C(=N)N3N=C(CC)SC3=NC2=O)ccc1OCCOc1ccc(NC(C)=O)cc1 returned VDR inhibitor -1.5%.
O=C(Cn1c(=O)oc2ccccc21)c1ccccc1 was read as VDR inhibitor 5.5%.
O=C(CCS(=O)(=O)c1cccs1)Nc1ccc(C(=O)Nc2ccccc2F)cc1 was read as VDR inhibitor -10.5%.
`O=S(=O)(NCc1ccccc1)c1ccc(Br)s1` gave VDR inhibitor 6.7%.
`O=C(CSc1ncccc1C(=O)Oc1ccccc1Cl)Nc1ccccc1Cl` gave VDR inhibitor -10.8%.
CC(C)(C)c1ccc(-c2nc(N)nc(N)n2)cc1 was read as VDR inhibitor -7.8%.
`CCN(C(=O)Cn1c(=O)oc2cc(Cl)ccc21)c1cccc(C(F)(F)F)c1` gave VDR inhibitor -18.8%.
Screening C[C@@H]1CC[C@@]2(OC1)OC1CC3C4CC=C5CC(O)CCC5(C)C4CCC3(C)C1[C@@H]2C (some centres undefined) returned VDR inhibitor -1.7%.
CC(C)CCNC(=O)c1ccc2c(c1)NC(=O)C(CS(=O)(=O)Cc1ccc(F)cc1)N2 (centres undefined) was read as VDR inhibitor 20.1%.
For CC(C)C[C@H](NC(=O)[C@H](CCCCN)NC(=O)[C@H](CCC(N)=O)NC(=O)[C@H](Cc1cnc[nH]1)NC(=O)[C@H](Cc1cnc[nH]1)NC(=O)[C@@H](N)C(C)C)C(=O)N[C@H](C(=O)N[C@@H](Cc1ccccc1)C(=O)N[C@@H](Cc1ccccc1)C(=O)N[C@@H](C)C(=O)N[C@@H](CCC(=O)O)C(=O)N[C@@H](CC(=O)O)C(=O)N[C@H](C(=O)NCC(=O)N[C@@H](CO)C(=O)N[C@@H](CC(N)=O)C(=O)N[C@@H](CCCCN)C(=O)O)C(C)C)C(C)C the results were VDR inhibitor -5.0%.
`CN(CC(=O)O)S(=O)(=O)/C=C/c1ccccc1` gave VDR inhibitor 11.4%.
COc1ccc(N2CCN(C(=O)c3c(C)nn(-c4ccc(F)cc4)c3-n3cccc3)CC2)cc1 was read as VDR inhibitor 23.3%.
Screening CCC1CN(C(=O)N2CCC(C(=O)N3CCN(c4cccc(C)c4C)CC3)CC2)c2ccccc2O1 (centres undefined) returned VDR inhibitor 13.5%.
`N#CC1=C(S)N(c2ccccc2)C(c2ccco2)NC1=O` (centres undefined) gave VDR inhibitor -6.7%.
For CCc1ccccc1NC(=O)CSc1nnc(-c2ccccc2)c(-c2ccccc2)n1 the results were VDR inhibitor 7.0%.
Screening O=C(CN1C(=O)c2cccnc2Oc2ccc(Cl)cc21)NC1CCCCCC1 returned VDR inhibitor -14.8%.
S=c1[nH]nc(Nc2cccc(Cl)c2)s1 was read as VDR inhibitor -0.6%.
COc1ccc(CNc2nc(-c3ccco3)nn2S(=O)(=O)c2ccc3ccccc3c2)cc1OC was read as VDR inhibitor 6.7%.
`COc1ccc(C(C(=O)NC2CCCCC2)N(C(=O)c2snc(C(N)=O)c2N)c2ccc(OC)cc2OC)cc1` (centres undefined) gave VDR inhibitor -2.6%.
`COc1ccc(-c2cc(C(=O)Nc3ccc(C)cc3)no2)cc1` gave VDR inhibitor 10.5%.
Screening COc1ccc(S(=O)(=O)N2CCCC2)c2ccccc12 returned VDR inhibitor -3.4%.
Screening CCCCCC1CC(/C(C)=N/NC(N)=O)OC1=O (centres undefined) returned VDR inhibitor -4.3%.
`Cc1ccc2c(c1)cc(CN(Cc1ccco1)C(=O)COc1ccccc1)c1nnnn12` gave VDR inhibitor -9.2%.
For CCC(C)Nc1nc(OCC(F)(F)F)nc(OCC(F)(F)F)n1 (centres undefined) the results were VDR inhibitor -5.4%.
CCCCCC(=O)NNC(=O)Cc1ccc([N+](=O)[O-])cc1 was read as VDR inhibitor -14.2%.
For COc1ccc(-c2onc(C)c2C)cc1S(=O)(=O)NCCc1ccco1 the results were VDR inhibitor -0.8%.
`COc1cc(OC)c2ccc(=O)oc2c1C(CCN1CCCCC1)c1ccc(N(C)C)cc1` (centres undefined) gave VDR inhibitor -9.3%&-11.1%.
For COc1ccc(NS(=O)(=O)c2cccc(C(=O)NCCCn3ccnc3)c2)cc1 the results were VDR inhibitor 6.1%.
`CCc1cc(-c2nnc(SCC(=O)NC3CC3)n2C)cs1` gave VDR inhibitor 3.2%.
CCCOc1ccc(/C=N\NC(=O)CCc2n[nH]c(=O)[nH]c2=O)cc1OC was read as VDR inhibitor 0.6%.
COc1cc(Cl)ccc1OCc1cc(C(=O)N2CCCC(OC)C2)no1 (centres undefined) was read as VDR inhibitor -12.4%.
`Brc1ccc(-c2cnc(-c3cccs3)o2)cc1` gave VDR inhibitor -2.2%.
For CN1CCN(C(=O)CCCOc2cc(=O)n(C)c3ccccc23)CC1 the results were VDR inhibitor -1.3%.
Screening COCCn1c(C)cc(/C=C2/NC(=O)N(c3ccc(Cl)cc3)C2=O)c1C returned VDR inhibitor -14.4%.
Screening O=C(Nc1cccc(OC(F)(F)F)c1)c1ccc(Br)o1 returned VDR inhibitor -4.6%.
O=C1NC(=Nc2ccccc2)CS1 was read as VDR inhibitor -8.4%.
CC(=O)Nc1ccc(S(=O)(=O)N2CCN(C(=O)N3CCCC3)CC2)cc1 was read as VDR inhibitor 1.4%.

Entries listed so far that have a Cl atom, in the order listed:
C=C1SC(=Nc2c(C)cc(C)cc2C)N(C(=O)c2sc3ccccc3c2Cl)C12CCCCC2 was read as VDR inhibitor -26.6%.
For COc1ccccc1NC(=O)Cc1c(C(=O)O)[nH]c2ccc(Cl)cc12 the results were VDR inhibitor 2.7%.
For COc1ccc(Oc2cccc(Cl)c2CNC(=O)CCCC(=O)O)cc1 the results were VDR inhibitor -7.9%.
`O=C(CSc1ncccc1C(=O)Oc1ccccc1Cl)Nc1ccccc1Cl` gave VDR inhibitor -10.8%.
`CCN(C(=O)Cn1c(=O)oc2cc(Cl)ccc21)c1cccc(C(F)(F)F)c1` gave VDR inhibitor -18.8%.
Screening O=C(CN1C(=O)c2cccnc2Oc2ccc(Cl)cc21)NC1CCCCCC1 returned VDR inhibitor -14.8%.
S=c1[nH]nc(Nc2cccc(Cl)c2)s1 was read as VDR inhibitor -0.6%.
COc1cc(Cl)ccc1OCc1cc(C(=O)N2CCCC(OC)C2)no1 (centres undefined) was read as VDR inhibitor -12.4%.
Screening COCCn1c(C)cc(/C=C2/NC(=O)N(c3ccc(Cl)cc3)C2=O)c1C returned VDR inhibitor -14.4%.

Next structures follow.
`COc1ccc(N(C(=O)c2ccccc2C)S(=O)(=O)c2cccs2)cc1` gave VDR inhibitor -3.5%.
c1ccc(N2CCN(c3ncnc4c3oc3ccccc34)CC2)cc1 was read as VDR inhibitor -2.1%.
Screening Cn1c(=O)oc2cc(S(=O)(=O)N3CCC(C(=O)NCc4cccs4)CC3)ccc21 returned VDR inhibitor 2.3%.
`COc1ccc(CCNC(=O)Cn2c(=O)n(-c3cc(OC)c(OC)c(OC)c3)c(=O)c3ccccc32)cc1OC` gave VDR inhibitor -1.4%.
Screening O=C(O)/C=C/c1cccc(B(O)O)c1 returned VDR inhibitor -10.0%.
Screening C=CCc1c(C)nc(SCC(N)=O)[nH]c1=O returned VDR inhibitor 16.4%.
Cc1nnc(SCC(=O)N2CCC(C(=O)Nc3nccs3)CC2)n1Cc1ccccc1 was read as VDR inhibitor -0.9%.
For CCOc1ccc(-c2c(C)nn3c(C)c(C(=O)NCCc4ccc(C)cc4)cnc23)cc1OCC the results were VDR inhibitor 5.9%.
Screening O=c1c(Cc2ccccc2)c(O)ccn1C1CCCCCCC1 returned VDR inhibitor 6.9%.
`Cc1ccc(C(=O)Nc2cccc(C(=O)OCc3cc(=O)n4nc(C5CC5)sc4n3)c2)cc1` gave VDR inhibitor -10.5%.
`C/C(=N\N1CCN(Cc2ccccc2Cl)CC1)c1ccc([N+](=O)[O-])cc1` gave VDR inhibitor 4.6%.
O=C(NC1CCCCC1)N1CCCC(CNS(=O)(=O)Cc2ccccc2)C1 (centres undefined) was read as VDR inhibitor -1.0%.
For O=C(COC(=O)c1ccc(Br)o1)NCCCc1ccccc1 the results were VDR inhibitor 4.0%.
Screening COc1ccc(Cl)cc1NC(=O)CN1c2ccccc2S(=O)(=O)c2ccccc21 returned VDR inhibitor 25.8%.
Clc1ccc(SCCOCCN2CCOCC2)cc1 was read as VDR inhibitor -8.9%.
Screening COc1ccc(-c2nc(CNS(=O)(=O)c3cccc(F)c3)cs2)cc1 returned VDR inhibitor 1.8%.
Screening COc1ccc2c3c(ccc2c1)C(=O)/C(=C/O)CC3 returned VDR inhibitor -29.4%.
For CCCCCCCCCCCCN1C/C(=C\C(=O)OCC)c2cc(C(F)(F)F)ccc2S1(=O)=O the results were VDR inhibitor -18.5%.
Cc1ccc(C(=O)C2=C(O)C(=O)N(c3ncccn3)C2c2ccccc2F)o1 (centres undefined) was read as VDR inhibitor -25.6%.
Screening Cc1cccc(N(Cc2cc(=O)[nH]c3ccccc23)C(=O)CCl)c1 returned VDR inhibitor -7.8%.
For COC(=O)Cc1nnc(Nc2cccc(C)c2)c2ccccc12 the results were VDR inhibitor -9.7%.
`CN1C(=CC=C2C=C(I)C(=O)C(I)=C2)C(C)(C)c2ccccc21` gave VDR inhibitor 5.8%.
For COc1cc(OC)c2c(C)c(CC(=O)NCCc3ccccc3OC)c(=O)oc2c1 the results were VDR inhibitor 12.4%.
Screening COc1ccc(OC)c(-c2cc(C(=O)Nc3c(C)nn(Cc4ccc(C)cc4)c3C)no2)c1 returned VDR inhibitor 4.6%.
CSc1nnc(-c2sc3cc(C(F)(F)F)cnc3c2-c2ccccn2)n1C was read as VDR inhibitor -14.0%.
Cc1ccc(C)c2[nH]c(=O)c(C(c3nnnn3Cc3ccco3)N3CCc4ccccc4C3)cc12 (centres undefined) was read as VDR inhibitor 18.5%.
CCCS(=O)(=O)N1CCN(c2cc3c(cc2[N+](=O)[O-])n(C)c(=O)n3C)CC1 was read as VDR inhibitor -3.2%.
For CN(C)S(=O)(=O)c1ccc(C(=O)OCc2nnc(-c3ccccc3)o2)cc1 the results were VDR inhibitor 2.9%.
Cc1cc(C(=O)Nc2nc3c(s2)CCCC3)no1 was read as VDR inhibitor 59.3%[activator].
Cc1cc(SCc2ccccc2F)nc(=O)[nH]1 was read as VDR inhibitor -7.0%.
For O=C(COC(=O)C1=Cc2ccccc2OC1)NCc1ccccc1 the results were VDR inhibitor 0.0%.
For CCOC(=O)NCc1ccc(Cl)c(Cl)c1 the results were VDR inhibitor -7.6%.
CCN(C(=O)Cn1cnc2onc(-c3ccc(F)cc3)c2c1=O)c1ccc(OC)cc1 was read as VDR inhibitor 4.5%.
CN1C2C=C(N(CCc3c[nH]c4ccccc34)C(=O)c3ccc(Cl)cc3)CC1CC2 (centres undefined) was read as VDR inhibitor 7.0%.
`Cc1ccc(C(C)C)c(OCCNS(C)(=O)=O)c1` gave VDR inhibitor -11.3%.
For O=[N+]([O-])c1ccc(OCc2cnc(Cl)s2)c([N+](=O)[O-])c1 the results were VDR inhibitor -7.6%.

Reprinted at random: two compounds from above, in no set order.
For O=[N+]([O-])c1ccc(OCc2cnc(Cl)s2)c([N+](=O)[O-])c1 the results were VDR inhibitor -7.6%.
Cc1cc(SCc2ccccc2F)nc(=O)[nH]1 was read as VDR inhibitor -7.0%.
